Sa growth inh = blocks Staphylococcus aureus growth; S. aureus RN4220 growth, OD600, 20 h, 42 °C; hits give low values; relative growth, % (concentration not given with the values); 170,000 compounds, 0.53% hits; AID 720641;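 active = growth at 42 °C up to 50% and 20 or more points under that at 30 °C, or under 10% at both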;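 also: 300 nL library stock went into each well; scaled to the means of positive and negative controls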
HCMV UL50-53 inh = disrupts HCMV UL50-UL53 complex binding. HTRF UL50-UL53 interaction, normalized percent inhibition. inhibition, % (concentration not given with the values). 190,000 compounds, 0.15% hits. AID 1918969;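 active = both replicates at 50% or more, plus weaker picks with an unusually low signal ratio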;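 also: stock transfer was 100 nL into about 20 µL; 0% = negative control wells and 100% = wells with untagged competitor protein; inactives centre near -12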
GIV-Gai inh = GIV-Galpha-i interaction inhibition. P08753. Galpha-i3/FITC-GIV peptide fluorescence polarization, 90 min; hits give low values; scaled: aluminum fluoride 0%, vehicle 100%. percent of control (FP), % (concentration not given with the values). 210,000 compounds, 0.42% hits;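 active = replicate mean at 85% of control or lower, very high polarization wells dropped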;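 also: wells of about 15 µL received 100 nL stock; the first replicate is given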
Target sequence (P08753 whole entry, looked up): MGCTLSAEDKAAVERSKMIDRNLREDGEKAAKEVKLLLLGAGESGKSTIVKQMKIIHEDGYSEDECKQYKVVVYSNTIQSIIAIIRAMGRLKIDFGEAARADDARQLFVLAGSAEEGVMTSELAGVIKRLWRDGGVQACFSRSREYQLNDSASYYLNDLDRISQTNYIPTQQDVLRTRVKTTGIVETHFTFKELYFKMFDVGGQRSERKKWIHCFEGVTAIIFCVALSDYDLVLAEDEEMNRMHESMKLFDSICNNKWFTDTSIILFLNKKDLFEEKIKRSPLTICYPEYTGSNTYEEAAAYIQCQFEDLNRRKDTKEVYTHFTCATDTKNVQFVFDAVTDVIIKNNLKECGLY
Sa growth inh second temp = also measured in Sa growth inh; calls as there; relative growth, %; measured here: growth at 30 °C;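 optical density after 20 h as mean of two plates; 100% = untreated growth and lower means inhibition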
Active calls of the source: *; · = no result given.

Molecule	HCMV UL50-53 inh	GIV-Gai inh	Sa growth inh second temp	Sa growth inh
Cc1ccc(NC(=O)c2ccc(CSc3ncnc4nc[nH]c34)cc2)cc1	·	105	84	111
CN(Cc1ccccc1)C(=O)c1ccccc1NC(=O)C1CC1	-21	108	98	100
CC1(C)CC(=O)C2=C(C1)NC(=O)NC2c1c(O)ccc2ccccc12 (stereo not drawn)	-41	·	94	106
CCCc1ccc(-c2nc(-c3cccs3)no2)cc1	7	98	117	99
NC(=O)c1cc2c(ccc3ccccc32)oc1=O	-75	92	86	106
COc1cc(=O)n(-c2ccccc2C)nc1C(=O)Nc1ccccc1O	-2	102	·	·
Cc1nc2nc(-c3ccc(C(C)(C)C)cc3)nn2c(C)c1CC(=O)N1CCc2ccccc2C1	-10	101	·	·
Cc1ccc(C(=O)COC(=O)c2ccc(N3C(=O)C4CCC(C)CC4C3=O)cc2)cc1[N+](=O)[O-] (stereo not drawn)	-14	100	·	·
CC(C)CCNC(=O)c1cccn2c(=O)c3c4c(sc3nc12)CCCC4	·	103	88	113
Cc1nn2c(=O)cc(COC(=O)c3ccccc3NC(=O)COc3ccccc3C)nc2s1	·	102	90	77
CCOCCCNC(=O)C(c1ccccc1)N(Cc1cccs1)C(=O)c1ccc(NC(C)=O)cc1 (stereo not drawn)	-2	102	83	95
c1ccc(CCn2c(COc3ccccc3)nc3ccccc32)cc1	-7	·	91	86

Overlap with the part before: three entries, followed by the next part.
Molecule	HCMV UL50-53 inh	GIV-Gai inh	Sa growth inh second temp	Sa growth inh
Cc1nn2c(=O)cc(COC(=O)c3ccccc3NC(=O)COc3ccccc3C)nc2s1	·	102	90	77
CCOCCCNC(=O)C(c1ccccc1)N(Cc1cccs1)C(=O)c1ccc(NC(C)=O)cc1 (stereo not drawn)	-2	102	83	95
c1ccc(CCn2c(COc3ccccc3)nc3ccccc32)cc1	-7	·	91	86
CCc1ccc(C2Sc3ccccc3NC3=C2C(=O)c2ccccc23)cc1 (stereo not drawn)	-6	109	83	95
CSc1sc(C(=O)NN)cc1-c1nc(C)cs1	-103	105	54	71
Cc1cc(N2CCCC2)ccc1/C=C(/C#N)c1ccc(F)cc1	-15	·	81	92
CC(=O)c1ccc(NS(=O)(=O)c2ccc3[nH]c4c(c3c2)CCCCCC4)cc1	·	101	86	91
CC1(C)Oc2ccc3ccc(=O)oc3c2C/C1=N/NC(N)=O	-10	110	93	94
COc1ccc(NC(=O)CCS(=O)(=O)c2nc(-c3ccc4c(c3)OCO4)cc(C(F)(F)F)n2)cc1	-29	108	60	82
COc1ccc(-c2ocnc2C(=O)Nc2ccc(F)cc2F)cc1	-4	104	90	115
C=CCSc1nnc(N)s1	-24	·	89	88
c1ccc(-c2cn3ccc4ccccc4c3n2)cc1	-22	105	·	·
CCOC(=O)c1cc(-c2ccccc2)n(-c2ccc(C(=O)NCc3ccco3)cc2)c1C	-16	103	90	97
COC(=O)CSc1nn(-c2ccc(F)cc2)c(=S)s1	-17	·	94	93
COc1ccc(-c2nn(-c3ccccc3)cc2/C=C\C(=O)N(C)C)cc1	-17	·	88	117

Four successive entries already listed, quoted:
Molecule	HCMV UL50-53 inh	GIV-Gai inh	Sa growth inh second temp	Sa growth inh
Cc1ccc(NC(=O)c2ccc(CSc3ncnc4nc[nH]c34)cc2)cc1	·	105	84	111
CN(Cc1ccccc1)C(=O)c1ccccc1NC(=O)C1CC1	-21	108	98	100
CC1(C)CC(=O)C2=C(C1)NC(=O)NC2c1c(O)ccc2ccccc12 (stereo not drawn)	-41	·	94	106
CCCc1ccc(-c2nc(-c3cccs3)no2)cc1	7	98	117	99

The list goes on:
Molecule	HCMV UL50-53 inh	GIV-Gai inh	Sa growth inh second temp	Sa growth inh
Cc1nn(CC(=O)NC(C)CCc2ccccc2)c(=O)c2cc3sccc3n12 (stereo not drawn)	-6	103	86	92
Cc1ccc(S(=O)(=O)N(CCO)Cc2ccccc2)cc1	-14	99	88	93
COc1ccc(CCNC(=O)c2ccc3c(c2)N(Cc2ccc(C)cc2)CCS3)cc1OC	8	108	109	102
CCOc1ccc(CC#N)cc1OCC	-35	·	83	111
CCOC(=O)c1ccc(N=C2SC(C(=O)Nc3ccccc3OC)CC(=O)N2C)cc1 (stereo not drawn)	-26	103	·	·
COc1ccc(CNc2ncnc3onc(-c4ccc(F)cc4)c23)cc1	·	102	89	92
CCOC(=O)c1cc2c(=O)n3ccccc3nc2n(CCOC)c1=NC(=O)c1c(-c2ccccc2Cl)noc1C	12	106	99	104
Cc1cccn2c(=O)c(C=NCc3ccccc3)c(NCc3ccco3)nc12	2	110	85	96
O=C(N/N=C1\CCc2ccccc21)c1cccs1	-34	·	91	82
CC(Oc1ccc(Br)cc1)c1nc(-c2ccccn2)no1 (stereo not drawn)	-20	101	·	·
COc1cc2sc(=NC(=O)c3cccc(OC)c3OC)n(C)c2cc1OC	16	110	102	107
C[C@@H]1CC2C3CCC4=CC(=O)C=C[C@]4(C)[C@@]3(F)[C@@H](O)C[C@]2(C)[C@@]1(O)C(=O)COP(=O)(O)O (stereo partly drawn)	-13	·	87	95
CSc1cccc(NC(=O)CSc2nc3ccccc3[nH]2)c1	·	108	66	99
Cc1nnc(N2CCCC(C(=O)NCCN3CCOCC3)C2)c2nn(-c3ccc(Cl)cc3)c(C)c12 (stereo not drawn)	-28	102	91	100
CCN(CC)CC(=O)Oc1ccc(NC2=NS(=O)(=O)c3ccccc32)cc1	0	105	106	115
Cc1ccc(NC(=O)Nc2ncc(-c3ccccc3)n2C)cc1C	-10	103	·	·
CCN(C(=O)c1cccc(S(=O)(=O)N2CCCCC2)c1)C1CCS(=O)(=O)C1 (stereo not drawn)	4	104	100	108
Cc1nc(SC(C)C(=O)Nc2c(C)n(C)n(-c3ccccc3)c2=O)nc(C)c1C (stereo not drawn)	-16	·	83	92
COC(=O)c1cc(S(=O)(=O)C(C)C)c(SC)s1	-9	101	85	93
O=C(CNC(=O)c1ccccc1F)OCc1cc(=O)n2nc(C3CCCCC3)sc2n1	·	106	90	103
COc1ccccc1C(=O)Nc1nc2ccc(S(=O)(=O)N3CCCC3)cc2s1	·	99	89	83
CCOC(=O)C1CCCCN1C(=O)c1sc2ncnc(N3CCN(c4ccccn4)CC3)c2c1C (stereo not drawn)	-6	107	·	·
CCOC(=O)N1CCC(NC(=O)c2sc3nc(C)cc(C)c3c2-n2cccc2)CC1	0	105	87	98
CC(C)CC(=O)Nc1nnc(S(=O)(=O)N(CC(C)C)c2ccccc2)s1	10	107	94	89
COCc1cc(C)nc(SCC(=O)Nc2nnc(C(F)(F)F)s2)c1C#N	-14	105	27	37
Cc1cc2n(n1)CCC(=O)N2CC(=O)NC1CCCC1	0	102	·	·
C=CCn1c(NC(C)=O)c(C#N)c2nc3ccccc3nc21	-55	·	85	98
CCC(=O)Nc1ccc2c(C)cc(C)nc2n1	-4	·	85	112
COc1cccc(-c2nn(-c3cc(C(F)(F)F)ccn3)c(=O)o2)c1	-5	106	97	96
OC(c1cccnc1)c1cccs1 (stereo not drawn)	-16	·	84	83
NC(=O)c1ccc[n+](CC(=O)N2CCOCC2)c1	-24	108	86	87
O=c1[nH]cnc2sccc12	-52	·	86	108
CCc1ccc(S(=O)(=O)c2nnn3c2nc(NC(C)C)c2sccc23)cc1	·	102	88	117
O=C(Nc1ccc(Cl)cc1)C1CCCN(c2nc3cccnc3n(Cc3ccccc3)c2=O)C1 (stereo not drawn)	-13	116	·	·
COc1ccc(/C=C2\CN(C)C/C(=C\c3ccc(OC)cc3)C2=O)cc1	-10	103	84	106
COc1ccc2nc(NC(=O)c3c(-c4ccc(Cl)cc4)nc4n3CCS4(=O)=O)sc2c1	-27	104	·	·

3 records drawn at random from the list so far, as already listed:
Molecule	HCMV UL50-53 inh	GIV-Gai inh	Sa growth inh second temp	Sa growth inh
Cc1cc2n(n1)CCC(=O)N2CC(=O)NC1CCCC1	0	102	·	·
NC(=O)c1ccc[n+](CC(=O)N2CCOCC2)c1	-24	108	86	87
O=c1[nH]cnc2sccc12	-52	·	86	108

Going on with the list.
Molecule	HCMV UL50-53 inh	GIV-Gai inh	Sa growth inh second temp	Sa growth inh
Cc1cc(C(=O)COC(=O)C2CC2)c(C)n1-c1ccc(F)cc1	-30	·	92	91
Clc1ccc(-c2nnc(CSc3nnc(SCC4CC4)s3)o2)cc1	-2	101	90	86
Cc1cc(C)c2c(n1)SCCN2C(=O)NCC(=O)NCC1CCCO1 (stereo not drawn)	-12	104	·	·
CC(=O)Nc1cccc(NC(=O)CSc2nccn2C2CCCC2)c1	·	108	88	140
CCN(CC)CCSc1nc(O)c(C)c(=O)[nH]1	·	107	95	84
CC(CNC(=O)c1cc2sccc2n1C)c1ccccc1 (stereo not drawn)	-24	107	·	·
COc1cccc(Nc2ncc3c(n2)CCN(Cc2ccccc2Cl)C3)c1	3	110	·	·
CSC1=C(C#N)C(c2ccc(C)cc2)CC(=O)N1 (stereo not drawn)	-30	103	87	85
COc1ccccc1NC(=O)Nc1cc(Cl)ccc1OCc1cc(=O)n2c(ncn2C(C)C)n1	17	101	·	·
CC1(C(=O)NC2CCCCC2)Cn2c(cc3ccsc32)C(=O)N1c1ccc(F)cc1 (stereo not drawn)	-36	105	·	·
CC1CN(C(=O)CSc2nc3c(cnn3-c3ccccc3)c(=O)[nH]2)CC(C)O1 (stereo not drawn)	15	·	107	106
Clc1ccc2nc3c4ccccc4cnn3c2c1	-14	97	86	97
COc1ccc(NC(=O)c2ccc3oc(=O)c(S(=O)(=O)c4ccc(C)cc4)cc3c2)cc1OC	-40	98	88	99
O=C(CSc1ccc(S(=O)(=O)N2CCCCC2)cn1)N1CCCC1	-4	·	95	90
CC(Cc1cccs1)N(Cc1ccc(Cl)cc1)C(=O)c1ccncc1 (stereo not drawn)	-32	·	88	115
CC(=C1C(=O)c2ccccc2C1=O)N1CCN(c2cccc(Cl)c2)CC1	-44	104	93	134
CC1(C)C(=O)N(CC(=O)Nc2ccc(F)c(Cl)c2)c2ccc(S(=O)(=O)N3CCCC3)cc21	-27	104	·	·
O=C(Nc1ccc(SC(F)F)cc1)C1=COCCO1	-5	·	98	91
O=C(Nc1ccc(-c2nnc3n2CCCCC3)cc1)c1ccco1	-20	·	84	145
Cc1cc(C)c(C)c(Cn2cnc3ccccc32)c1C	·	98	78	94
CCOC(=O)c1cnn2c(C)c(Cc3cccc(F)c3)c(C)nc12	-22	105	·	·
CCOc1ccc(CNC(=O)c2ccc3c(c2)N(CC)CCS3)cc1	11	105	108	103
CC(Nc1ccc(Br)cc1)C(=O)NC1CCCC1 (stereo not drawn)	-1	·	97	107
COc1cccc(-c2csc(-c3nnn(-c4ccc(C)c(C)c4)c3N)n2)c1	-16	117	·	·
CCN(Cc1ccccc1)C(=O)C1(S(=O)(=O)c2ccc(C)cc2)CC1	0	110	101	108
COC(=O)CN(c1ccccn1)S(=O)(=O)c1ccccc1	-5	99	87	106

Record cards, from the list above. Order of values: HCMV UL50-53 inh | GIV-Gai inh | Sa growth inh second temp | Sa growth inh
CC(C)CCNC(=O)c1cccn2c(=O)c3c4c(sc3nc12)CCCC4 across the screens: · | 103 | 88 | 113
Clc1ccc(-c2nnc(CSc3nnc(SCC4CC4)s3)o2)cc1 across the screens: -2 | 101 | 90 | 86
CSc1cccc(NC(=O)CSc2nc3ccccc3[nH]2)c1 across the screens: · | 108 | 66 | 99

Assay outcomes as filed in PubChem.
